HSV augment = increases HSV replication in cells; AID 1956; maximum fold increase; HSV replication augmentation in cells, fold increase; 220,000 compounds, 0.005% hits;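 active = peak rise of 1.5-fold or more in the series; tested in PC3 cells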;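 also: first round at 10 µM; read as green reporter fluorescence; hits show the peak of a series up to 25 µM; 1 = signal of infected wells without compound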
GALR2 ag = GALR2 (human) receptor agonism; GALR2-expressing cells, agonist activation read-out; O43603; activation, %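 (tested at 5 µM)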; 140,000 compounds, 0.48% hits;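 active = above mean plus 3 SD of all compounds, about 5% in these data, not always enough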;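 also: 0% = vehicle buffer wells and 100% = reference agonist at full effect; tested in CHO reporter cells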
Target sequence (O43603 whole entry, looked up): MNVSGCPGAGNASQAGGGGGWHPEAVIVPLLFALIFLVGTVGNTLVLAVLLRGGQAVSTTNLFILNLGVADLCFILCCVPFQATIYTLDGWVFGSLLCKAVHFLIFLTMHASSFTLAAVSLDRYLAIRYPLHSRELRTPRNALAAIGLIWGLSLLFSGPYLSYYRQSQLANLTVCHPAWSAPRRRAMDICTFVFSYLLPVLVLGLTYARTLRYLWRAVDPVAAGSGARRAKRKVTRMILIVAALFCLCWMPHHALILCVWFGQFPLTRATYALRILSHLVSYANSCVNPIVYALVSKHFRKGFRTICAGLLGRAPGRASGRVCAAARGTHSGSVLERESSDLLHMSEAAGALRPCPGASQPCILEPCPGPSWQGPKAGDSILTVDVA
RGS16-Gao = RGS16-Galphao interaction regulator (human); bead-based flow cytometry RGS16-Galphao binding, fluorescence; actives lie on both sides; binding response (% of control), % at 10 µM; 220,000 compounds, 0.38% hits;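 active = below 25% or above 175%, edge rows of some plates excepted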;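 also: Galphao activated by GDP with aluminum fluoride before binding; 100% = wells without compound and 0% = beads without RGS; some results beyond the cut were filed as inactive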
Target sequence (O15492 whole entry, looked up): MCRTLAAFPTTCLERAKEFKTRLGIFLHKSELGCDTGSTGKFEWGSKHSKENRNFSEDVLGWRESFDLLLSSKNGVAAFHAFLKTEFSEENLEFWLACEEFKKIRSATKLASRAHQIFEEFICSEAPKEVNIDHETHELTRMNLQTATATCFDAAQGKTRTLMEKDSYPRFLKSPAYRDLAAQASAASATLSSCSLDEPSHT
Target sequence (P09471 whole entry, looked up): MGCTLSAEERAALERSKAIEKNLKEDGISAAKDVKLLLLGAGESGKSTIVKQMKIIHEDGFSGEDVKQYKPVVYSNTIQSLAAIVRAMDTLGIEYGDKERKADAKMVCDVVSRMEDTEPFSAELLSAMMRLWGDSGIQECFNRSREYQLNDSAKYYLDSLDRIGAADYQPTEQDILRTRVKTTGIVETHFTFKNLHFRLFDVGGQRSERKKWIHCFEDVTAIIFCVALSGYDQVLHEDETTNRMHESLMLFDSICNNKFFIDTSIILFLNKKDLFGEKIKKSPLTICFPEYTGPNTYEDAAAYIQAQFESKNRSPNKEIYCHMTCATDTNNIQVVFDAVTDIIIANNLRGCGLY
Insulin prom inh = TRM-6 insulin promoter activity inhibition. inhibition, % at 2 µM. 130,000 compounds, 0.9% hits. TRM-6 cells (human fetal islet line), insulin promoter-eGFP reporter, imaging; reporter expression induced with tamoxifen. AID 1273;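 active = inhibition above the mean plus 3 SD, with well images judged a real hit on visual review, cut at about 60% in these data, passing the limit was not always enough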
PKD1 inh = PKD1 (human) kinase inhibition | Q15139 | PKD1 kinase fluorescence polarization assay | AID 797 | 200,000 compounds, 0.056% hits | inhibition, %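 (about 10 µM by stock and volumes)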;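 active = inhibition of 50% or more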;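 also: controls were vehicle for no effect and a reference inhibitor for full effect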
Insulin prom inh cell count = recorded beside Insulin prom inh, whose call it bears; normalized cell count, %; measured here: cell count, toxicity; reference of the scale not given here;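 cells exposed to compound for 48 h; stained nuclei by imaging scaled within each plate; lower means fewer cells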
HSV augment primary fold = also measured in HSV augment; calls as there; fold increase; compound at 10 µM; measured here: primary screen fold increase 10 uM; tested in PC3 cells;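 GFP signal in the first replicate; 1 = infected wells without compound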
An asterisk follows results filed as active; i = inactive; x = no result given.

SMILES	HSV augment	HSV augment primary fold	GALR2 ag	RGS16-Gao	Insulin prom inh	Insulin prom inh cell count	PKD1 inh
COc1cc(/C=N/N=C/c2cc(OC)c(O)c(OC)c2)cc(OC)c1O	i	0.98	-1.4	108	28	138	-11
Cc1cc(C)n(CC(O)CN2c3ccccc3Sc3ccccc32)n1 (stereo not given)	i	0.88	-0.9	95	-209	118	0
COC(=O)c1nnn(CC(=O)NC(=O)Nc2cccc(C)c2C)c1C(=O)OC	i	1	-0.7	85	24	85	-6
Cc1cccc(C(=O)NC2CCCc3ccccc32)c1 (stereo not given)	i	1	x	100	x	x	-4
CCn1nnc(NC(=O)c2cccnc2Cl)n1	i	1.1	-1.1	105	-25	163	-8
Cc1ccc(S(=O)(=O)NCC(=O)OCC(=O)Nc2ncc(Cl)cc2Cl)cc1	i	1	0.0	98	-8	149	-9
Cc1ccccc1Nc1nccc(N(C)C)c1C#N	i	0.89	x	101	x	x	-5
COc1ccc(/C=C(/NC(=O)c2ccccc2)C(=O)N/N=C/c2ccncc2)c(OC)c1	i	0.91	-1.7	103	-7	142	5
CC1(C)Cc2cccc(OCC(N)=O)c2O1	i	0.98	-2.6	97	9	142	-6
Cc1cnccc1CNC(=O)CC1C(=O)NCCN1CC(C)(C)C (stereo not given)	i	1	x	107	-64	112	7
Cc1cc(C(=O)CSc2nnnn2-c2ccccc2)c(C)n1CCc1ccccc1	i	1.1	-1.5	98	14	187	3
O=C(c1ccccc1)N1CCN(C(=O)N2CCCCC2)CC1	i	1	-0.6	100	x	x	-12
CCN1CCCC(OC(=O)c2cc(-c3ccccc3Cl)nc3ccccc23)C1 (stereo not given)	i	1	x	104	6	139	6
O=C(Nc1nccs1)c1cc2sccc2n1Cc1ccc(Cl)cc1	i	0.85	-1.6	101	x	x	6
C/C(=N/NC(=O)c1cccs1)c1cccc(N)c1	i	1	x	59	x	x	-3
Cc1ccc(Sc2ncccc2COC(=O)Nc2ccccc2)cc1	i	1	-2.6	106	0	144	-2
CCC(=O)NC(c1ccccc1)c1c(OC(C)=O)ccc2ccccc12 (stereo not given)	i	1	x	101	x	x	-1
CCOC(=O)c1sc(NC(=O)CSc2nnnn2-c2ccccc2)c(C(=O)OCC)c1C	i	1	-1.8	98	46	50	-1
Cc1ccc(NC(=O)C2CCN(S(C)(=O)=O)CC2)cc1C	i	0.79	-2.7	118	51	75	-1
CN(CCNS(=O)(=O)c1ccc2c(c1)oc(=O)n2C)Cc1ccccc1	i	0.94	-0.9	104	57	84	-5
OCC1(Cc2cccc(F)c2)CCN(Cc2ccc3cccc(F)c3n2)CC1	i	0.93	x	104	x	x	-8
CCOC(=O)c1cc2sccc2n1CC(=O)Nc1ccc(OC)c(OC)c1	i	0.84	-1.1	102	x	x	15
Cn1nnnc1NCc1cccc(Cl)c1Cl	i	0.99	x	100	-12	62	-5
COc1ccc(Cn2cc([N+](=O)[O-])nc2C)cc1[N+](=O)[O-]	i	0.81	x	102	x	x	x
Cc1cc(O)cc(O)c1C(=O)Cc1ccccc1	i	1	-2.1	87	-71	73	7
Cc1ccccc1OCCCn1c(=O)sc2ccccc21	i	0.89	0.5	103	-64	91	3
Cn1nnnc1SCC(=O)Nc1ccccc1C(=O)NCc1ccccc1	i	1.2	-3.5	83	-50	104	2
Cc1sc(NC(=O)C2CCCC2)c(C#N)c1C	i	1	-0.1	84	13	191	-1
Cc1c(NC(=O)C(C)OC(=O)c2cccs2)c(=O)n(-c2ccccc2)n1C (stereo not given)	i	0.92	-1.9	85	-23	87	4
CCCn1c(SCC(=O)NCc2ccco2)nc2c1c(=O)n(C)c(=O)n2C	i	1.1	0.8	107	24	128	-4
CCOc1ccc2cc(C#N)c(SCC(=O)N3CCOCC3)nc2c1	i	0.9	2.3	103	-5	118	-16
c1nc(NC2CCCC2)c2[nH]cnc2n1	i	0.9	-1.3	101	50	113	1
CCOc1ccc(Br)cc1S(=O)(=O)Nc1ccc(C(=O)Nc2ccccc2OC)cc1	i	0.78	-0.4	109	-10	127	-2
O=C(CCn1c(=O)[nH]c2ccsc2c1=O)N1CC(=O)N(CCc2ccccc2)C(=O)C1	i	0.94	-0.8	106	x	x	9
CCOC(=O)c1c(C)nc2sc3c(=O)n(-c4ccc(C(C)=O)cc4)nnc3c2c1-c1ccc(Cl)cc1	i	0.91	-1.5	110	x	x	14
COc1cc(C)c(Br)cc1S(=O)(=O)NCc1ccncc1	i	1	x	100	12	156	1

Part of the list above, with values under each structure.
Value order – HSV augment	HSV augment primary fold	GALR2 ag	RGS16-Gao	Insulin prom inh	Insulin prom inh cell count	PKD1 inh
- Cc1ccc(S(=O)(=O)NCC(=O)OCC(=O)Nc2ncc(Cl)cc2Cl)cc1
 : i	1	0.0	98	-8	149	-9
- Cc1ccc(Sc2ncccc2COC(=O)Nc2ccccc2)cc1
 : i	1	-2.6	106	0	144	-2
- COc1ccc(Cn2cc([N+](=O)[O-])nc2C)cc1[N+](=O)[O-]
 : i	0.81	x	102	x	x	x
- CCCn1c(SCC(=O)NCc2ccco2)nc2c1c(=O)n(C)c(=O)n2C
 : i	1.1	0.8	107	24	128	-4
- CCOC(=O)c1c(C)nc2sc3c(=O)n(-c4ccc(C(C)=O)cc4)nnc3c2c1-c1ccc(Cl)cc1
 : i	0.91	-1.5	110	x	x	14
- CCOc1ccc2cc(C#N)c(SCC(=O)N3CCOCC3)nc2c1
 : i	0.9	2.3	103	-5	118	-16

Next section
SMILES	HSV augment	HSV augment primary fold	GALR2 ag	RGS16-Gao	Insulin prom inh	Insulin prom inh cell count	PKD1 inh
O=P(O)(c1ccc(Cl)cc1)c1ccc(Cl)cc1	i	0.95	-1.3	101	x	x	-8
COc1ccc(NC(=O)c2c(Cl)n(C)c3ccccc23)cc1	i	0.81	-2.6	102	0	117	0
CCOc1ccc(C2Sc3ccccc3NC3=C2C(=O)OC3)cc1 (stereo not given)	i	1	-1.8	97	-49	88	-6
CC(C)(C)OC(=O)CNC(=O)c1[nH]cnc1C(=O)N[C@@H](Cc1ccccc1)C(=O)OC(C)(C)C	i	0.51	x	104	x	x	x
CN1CCc2c(sc3c2c(=O)n(-c2ccccc2)c2nnc(SCc4ccccc4)n32)C1	i	1	1.9	95	x	x	5
Cc1[nH]c2ccccc2c1C(=O)CSC(=S)N1CCN(C)CC1	i	0.74	x	106	x	x	x
O=S(=O)(O/N=C1\CCCc2ccccc21)c1ccc(Cl)cc1	i	0.98	-3.3	96	x	x	-7
CCOc1ccc2ccccc2c1C1NC(=S)N(C)C(C)=C1C(=O)OC (stereo not given)	i	1	x	101	x	x	5
Oc1c(I)cc(Cl)c2cccnc12	x	x	0.8	102	23	140	-6
Cc1c(-c2nn(C)c(=O)c3ccccc23)oc2ccc(F)cc2c1=O	i	0.94	-1.6	102	-23	118	-1
Cc1cc(C)cc(N2C(=O)C3CC=CCC3C2=O)c1 (stereo not given)	i	0.87	1.1	102	45	57	-6
CCOC(=O)c1ccc(-n2nc(C(F)(F)F)c3c(C)cc(=O)oc32)cc1	x	x	-2.7	x	44	118	-13
COC(=O)c1sccc1NC(=O)COc1ccc(F)cc1Cl	i	0.71	x	117	x	x	-6
CC(=O)Oc1ccc(-c2nc(-c3cccnc3)no2)cc1	i	0.95	-0.9	101	-363	57	-4
O=C(OCC(=O)N1CCc2ccccc21)c1ccccn1	i	0.92	x	37	x	x	-4
O=C(CSc1nc2ccccc2o1)Nc1nc2ccc(Br)cc2s1	i	0.95	-2.3	106	-2	101	-4
COCCN1C(=O)c2oc3ccccc3c(=O)c2C1c1ccc(C(=O)OC)cc1 (stereo not given)	i	1.2	-3.5	88	0	66	-12
COc1ccc(OC)c(C2SCCN2S(=O)(=O)c2cccc(C(F)(F)F)c2)c1 (stereo not given)	i	0.88	-1.4	100	x	x	-11
Cc1ccc(S(=O)(=O)N(C)c2ccc(C(=O)NCc3ccccn3)cc2)cc1	i	0.92	x	98	x	x	-1
NC(=O)CSc1cn(Cc2ccc(F)cc2)c2ccccc12	i	1	x	103	-22	158	-4
COc1ccc(CN2CCNC(=O)C2CC(=O)N(Cc2nccn2C)C(C)C)c(OC)c1 (stereo not given)	i	0.95	x	104	x	x	x
CNC(=O)c1ccc(-c2ccc(F)cc2)s1	i	1.1	-3.6	49	42	99	-3
Cc1ccc(/C(C#N)=C\c2ccc(N3CCOCC3)o2)cc1	i	0.82	-2.2	101	19	92	-10
Cc1ccc(Cn2c(NCCCn3ccnc3)nc3c2c(=O)n(C)c(=O)n3C)cc1	i	0.98	0.1	101	18	146	-5
CCOc1ccc(NC(=O)CN(C)CC(=O)NC(C)c2ccccc2)cc1OCC (stereo not given)	i	0.95	x	95	x	x	-12
Cc1nn(C(C)C(=O)N/N=C/c2ccc(N(C)C)cc2)c(C)c1[N+](=O)[O-] (stereo not given)	i	1	x	100	x	x	x
O=C(Nc1ccc2c(c1)oc1ccccc12)c1ccc(Br)o1	i	1	-1.4	104	-7	145	2
N#Cc1c(NC(=O)CSc2nnc(-c3ccccc3O)n2-c2ccccc2)sc2c1CCCC2	i	0.88	-4.2	97	55	121	0
COc1ccc(Cc2nnc(SC)[nH]c2=O)cc1	i	1.2	-1.3	99	x	x	4
Cc1ccc(C(=O)Nc2ccn(Cc3ccc(F)cc3)n2)o1	i	0.83	-1.7	99	x	x	-6
COc1ccc(C(=O)NCc2nnc(SCC(=O)N3CCc4ccccc43)o2)cc1OC	i	0.88	-1.1	95	-25	117	-4
CC(=O)Nc1ccc(NC(=O)C2CCCN2C(=O)Nc2ccccc2[N+](=O)[O-])cc1 (stereo not given)	i	0.98	x	55	x	x	-4
CC(C)(Cc1ccc(O)cc1)NC(=O)CC(=O)N=Nc1c(O)[nH]c2cc(Br)ccc12	i	0.92	x	99	0	89	0
CN1C(=O)C(CC(=O)O)S/C1=N\N=C\c1ccc(O)cc1O (stereo not given)	i	1.1	x	88	x	x	x
CC(=O)NC(=S)c1c(N)n(Cc2ccccc2)c(=O)n(C)c1=O	i	1	-1.6	103	x	x	-6
COc1ccc(S(=O)(=O)N2CCC(C(=O)NCc3ccccn3)CC2)cc1OC	i	1.1	-3.6	119	36	103	-9

Whole records, quoted from the list. Order of screens: HSV augment | HSV augment primary fold | GALR2 ag | RGS16-Gao | Insulin prom inh | Insulin prom inh cell count | PKD1 inh
CNC(=O)c1ccc(-c2ccc(F)cc2)s1 reads i | 1.1 | -3.6 | 49 | 42 | 99 | -3
Cc1ccc(/C(C#N)=C\c2ccc(N3CCOCC3)o2)cc1 reads i | 0.82 | -2.2 | 101 | 19 | 92 | -10
Cc1ccccc1OCCCn1c(=O)sc2ccccc21 reads i | 0.89 | 0.5 | 103 | -64 | 91 | 3

Next section.
SMILES	HSV augment	HSV augment primary fold	GALR2 ag	RGS16-Gao	Insulin prom inh	Insulin prom inh cell count	PKD1 inh
Cn1c(=O)[nH]c(=O)c2c1nc(Br)n2CC(O)COCc1ccccc1 (stereo not given)	i	1	-1.4	98	x	x	0
CCC(=O)Oc1ccc(C2N(C(=O)CC)CCN2S(=O)(=O)c2ccc(C)cc2)cc1OC (stereo not given)	i	1	-2.1	110	0	126	-5
COc1cc(NS(=O)(=O)c2ccc(N/C=C\C(=O)c3ccc(F)cc3)cc2)nc(OC)n1	i	0.88	-0.8	100	38	142	-8
CNCc1ccccc1Sc1cc(O)ccc1O	i	1.1	-0.8	98	x	x	2
CCc1nc2ccccc2nc1N1CCN(S(=O)(=O)c2ccccc2)CC1	i	1.1	x	100	x	x	x
CCC(=O)c1cc(F)c(N2CCN(C(=O)c3ccco3)CC2)cc1C	i	1	-1.0	100	x	x	-15
CCOC(=O)c1ccoc1CSCC(=O)N1CCN(S(=O)(=O)c2ccc(C)cc2)CC1	i	0.99	-0.7	95	-42	101	4
CC1CN(C(=O)C2(C)CC2(Cl)Cl)CC(C)O1 (stereo not given)	i	0.97	-0.2	104	-8	82	-9
Cc1ccccc1Cn1ccc(NC(=O)c2cc3ncc(Br)cn3n2)n1	i	0.96	x	105	x	x	-2
O=C(Cn1cnc2cc([N+](=O)[O-])ccc2c1=O)Nc1ccc(Br)cc1	i	0.87	x	96	x	x	x
Cc1ccc(C(=O)n2nc(-c3cccnc3)nc2N)cc1	i	1.1	-1.8	102	14	66	2
O=C(O)C1C(c2ccccc2)C(C(=O)Oc2ccccc2)C1c1ccccc1 (stereo not given)	i	0.86	-0.6	110	62	136	-7
COc1ccc(Cn2c(=O)[nH]c3cc(C(=O)N4CCN(c5ccccn5)CC4)ccc3c2=O)cc1	i	0.94	x	89	23	41	5
Cc1cc(C)n(-c2nc3c(c(=O)n(C)c(=O)n3C)n2C)n1	i	1	-1.8	130	-65	130	-4
CCNC(=S)N1CCN(CC(=O)Nc2ccc(OC)cc2)CC1	i	1.1	x	94	0	94	6

An unsorted share of the library; overall some 1.2% were active at least once.
